LANA-nucl inh – inhibitors of KSHV LANA binding to nucleosomes. FITC-LANA1-23 / chicken nucleosome fluorescence polarization; active compounds read low. z-score (concentration not given with the values). 0.3% of 51,000 active;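 active means both repeat wells score below -2 in polarization z-score versus plate sample wells, excluding overly bright wells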;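 further: 100 nL library stock added to about 30 µL; numbers are from one replicate; some results filed as inactive read as strong as hits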
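test system = FITC-LANA peptide and chicken nucleosomes | amount = 240 nM purified chicken nucleosomes (480 nM peptide binding sites), final | reagent = 50 nM FITC-LANA1-23 probe | medium = TEN-BT buffer, pH 7.5 | doses = single compound addition by pin transfer, 100 nL per well | timing = 10–45 min, room temperature | detection = fluorescence polarization | repeats = duplicate plates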
Ab BasE inh – inhibitors of Acinetobacter baumannii siderophore enzyme BasE; 0.1% of 84,000 active; inhibition, % (no concentration beside the values); purified BasE, fluorescence polarization binding displacement; AID 485350;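 active means both replicates above 25% with normal brightness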;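 further: 0% = negative plate control signal and 100% = positive plate control signal; stock transfer was 100 nL into about 30 µL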
Active calls of the source: *; . = not tested or not shown. Some of the compounds tested, so the mix of outcomes need not match the whole.

SMILES | LANA-nucl inh | Ab BasE inh
CC(C)C[C@H](NC(=O)[C@@H](COC(C)(C)C)NC(=O)[C@H](Cc1ccc(O)cc1)NC(=O)[C@H](CO)NC(=O)[C@H](Cc1c[nH]c2ccccc12)NC(=O)[C@H](Cc1cnc[nH]1)NC(=O)[C@@H]1CCC(=O)N1)C(=O)N[C@@H](CCCN=C(N)N)C(=O)N1CCC[C@H]1C(=O)NNC(N)=O | -0.43 | .
COc1ccc(NS(C)(=O)=O)cc1 | 0.34 | .
COc1ccc2oc(C(F)(F)C(F)(F)C(F)(F)C(F)F)cc(=O)c2c1 | 0.91 | 0.9
CN1CCN(c2ccc(CNS(=O)(=O)c3cn(C)cn3)cc2)CC1 | 0.53 | 0.5
O=C(Nc1nc(-c2ccc(S(=O)(=O)N3CCCC3)cc2)cs1)c1cccs1 | -0.18 | 2.8
COc1ccc(NC(=O)c2ccc(CN3CCS(=O)(=O)CC3)cc2)cc1 | . | -0.1
O=C1CN(C(=O)CCCOc2cccc(Br)c2)c2ccccc2N1 | . | -0.3
N#CC(c1ccc(Cl)cc1)(c1ncc(C(F)(F)F)cc1Cl)N1CCOCC1 (configuration not stated) | 3 | .
O=C1c2cccnc2C(=O)N1CCc1ccc(S(=O)(=O)N2CCCc3ccccc32)cc1 | 0.028 | 1.0
O=C(Cn1cnnn1)N(Cc1ccco1)Cc1cccs1 | . | -0.7
c1ccc(N=c2scc(-c3ccccc3)n2Cc2ccco2)cc1 | . | 3.3
CCOc1ccc(/C=C/C(=O)Nc2ccc3[nH]c(=O)[nH]c3c2)cc1 | -0.31 | 2.0
CCCN1C(=O)c2ccccc2NC1c1ccc(C)cc1 (configuration not stated) | -0.073 | 1.4
Cc1nnc(NC(=O)c2ccc(F)cc2F)o1 | . | 2.9
O=C(CCCc1ccccc1)Nc1ncn[nH]1 | -1.2 | -1.5
CN1c2ccccc2C(=O)NC1c1ccc(Cl)c(Cl)c1 (configuration not stated) | . | -0.3
O=C1C(c2ccc(F)cc2)N(CC2COc3ccccc3O2)C(=O)CN1C1CCCCC1 (configuration not stated) | -1.3 | 0.1
O=C(CC1SC(=O)NC1=O)Nc1ccccc1NC(=O)CC1SC(=O)NC1=O (configuration not stated) | 0.052 | 1.3
CNC(=O)C(C)OC(=O)C1CCN(C2=NS(=O)(=O)c3ccccc32)CC1 (configuration not stated) | . | 1.7
CNC(=O)NCCc1ccc(Cl)cc1 | -0.2 | 1.3

The final 4 entries of the part before are carried over, then new ones follow:
SMILES | LANA-nucl inh | Ab BasE inh
O=C1C(c2ccc(F)cc2)N(CC2COc3ccccc3O2)C(=O)CN1C1CCCCC1 (configuration not stated) | -1.3 | 0.1
O=C(CC1SC(=O)NC1=O)Nc1ccccc1NC(=O)CC1SC(=O)NC1=O (configuration not stated) | 0.052 | 1.3
CNC(=O)C(C)OC(=O)C1CCN(C2=NS(=O)(=O)c3ccccc32)CC1 (configuration not stated) | . | 1.7
CNC(=O)NCCc1ccc(Cl)cc1 | -0.2 | 1.3
Cc1noc(C)c1COC(=O)c1ccc2ccccc2c1 | . | -4.9
CN(C)S(=O)(=O)c1ccc(N2CCCC2)c(C(=O)OCc2nc3ccsc3c(=O)[nH]2)c1 | . | -2.4
CCOCCOc1nc(C)cc(C)c1C#N | 0.52 | 3.5
Cc1nn(Cc2ccccc2)c(C)c1C(=O)OCc1cccc(S(=O)(=O)N(C)C)c1 | . | 1.4
COc1ccc(C(=O)COC(=O)C2Cc3ccccc3CN2S(C)(=O)=O)cc1 (configuration not stated) | . | -1.0
CC1C/C(=N/NC(=O)C2CC2)CC(C)(C)C1 (configuration not stated) | . | 0.4
COc1cc(NC(=O)CN2C(=O)CCC2=O)cc(OC)c1OC | . | 1.2
O=C1c2ccccc2C(=O)N1CC(O)COc1ccc(Cl)cc1Cl (configuration not stated) | -0.41 | 2.6
O=C(N/N=C1\SCC(=O)N1CCc1ccccc1)c1cccs1 | -0.53 | -0.2
CCOC(=O)c1cn2nc(N3CCCCC3)ccc2n1 | 0.33 | -2.9
O=C1OCCC1Sc1nc2ccccc2n1Cc1ccccc1 (configuration not stated) | -0.82 | 1.4
C/C(NNc1ccccc1)=C(/C#N)C(N)=S | -0.32 | -1.2
CCOC(=O)c1sc(SC)c2c1CCc1cnc(SC)nc1-2 | . | -0.1
FC(F)(F)COCC(F)(F)F | 0.32 | .
CCOC(=O)c1cnn(Cc2ccccc2)c1N | -0.85 | 0.7
CCn1ncc(Br)c1C(=O)Nc1nccs1 | -0.93 | -0.5
O=C(NCCc1ccccc1)c1ccc(CS(=O)Cc2cccc(Cl)c2)o1 (configuration not stated) | -0.13 | 0.9
Cc1oc(C(C)(C)C)cc1C(=O)NC1CCN(Cc2ccccc2)CC1 | -0.14 | -2.0
Cn1cccc1C(=O)C(F)(F)F | . | 1.2
NC(=O)COc1ccc2oc3ccccc3c2c1 | . | 1.8

Complete entries as entered above:
CCOCCOc1nc(C)cc(C)c1C#N across the screens: LANA-nucl inh: 0.52; Ab BasE inh: 3.5
CC1C/C(=N/NC(=O)C2CC2)CC(C)(C)C1 (configuration not stated) across the screens: LANA-nucl inh: .; Ab BasE inh: 0.4

Continuation:
SMILES | LANA-nucl inh | Ab BasE inh
O=C(CNS(=O)(=O)c1ccccc1)OCc1csc(-c2ccccc2)n1 | . | -1.9
OCc1cc(Br)cc(CO)c1O | . | -21
Cc1ccc(NC2=Nc3ccccc3CS2)cc1 | . | 0.3
O=C(c1ccco1)N1CCC2(CC1)OCCO2 | -1.4 | 1.6
O=C(CCN1C(=O)S/C(=C\c2cccs2)C1=O)NCc1ccco1 | . | -0.8
O=C1NC(=Nc2ccccc2)S/C1=C/C=C/c1ccco1 | 1.7 | -1.3
O=C(CSc1nnc(-c2ccccc2)n1Cc1ccco1)c1ccc2c(c1)OCO2 | . | -5.0
CCOC(=O)c1sc(N)c(C#N)c1COC(=O)C1Cc2ccccc2CN1S(C)(=O)=O (configuration not stated) | . | -77
CN(CC1COc2ccccc2O1)C(=O)C1CCN(c2ccc(-c3cccs3)nn2)CC1 (configuration not stated) | -0.7 | -0.8
CS(=O)(=O)Nc1ccc(C(=O)NCCc2ccccc2)cc1 | -0.96 | -1.3
Cc1ccc(CNC(=O)c2cn(C)c3ccc(S(=O)(=O)N(C)C)cc3c2=O)cc1 | 1.9 | -1.2
O/N=C\c1ccc(-c2ccc(Cl)cc2)o1 | -0.14 | -2.2
Cc1ccc(C(=O)NN2C(=O)CSC2=S)cc1 | 0.23 | -1.4
O=C(CSc1nnc(Nc2ccccc2F)s1)Nc1ccc2c(c1)OCCCO2 | . | 1.4
CC(Oc1ccc(Cl)cc1Cl)C(=O)Nc1nc2c(s1)C(=O)CC(C)(C)C2 (configuration not stated) | . | 2.3
COCCn1c(C)cc(C(=O)COC(=O)CCc2nc3ccccc3s2)c1C | . | -0.5
Cc1ccc2c(c1)NC(C1=NS(=O)(=O)c3ccc(C)cc3N1)=NS2(=O)=O | -0.039 | -0.7
N=Nc1c(O)n(Cc2ccccc2)c2ccccc12 | . | 2.9
O/N=C1/CCCc2occc21 | 2 | -1.0
Cc1ccc(CNC(=O)C2CSC3(C)CCC(=O)N23)cc1 (configuration not stated) | . | -0.2
O=C(CSc1nc2ccccc2o1)NCC1CCCO1 (configuration not stated) | 0.45 | 3.3
CCC1=NN(C(=O)COc2ccc(Cl)c(C)c2)C(O)(C(F)(F)F)C1 (configuration not stated) | . | 0.9
O=C(CSc1nc2ccccc2o1)c1ccc(Cl)cc1 | 0.63 | 1.9
CN1CCN(C(=O)c2ccc(COc3cc(Cl)ccc3Cl)o2)CC1 | 0.17 | -1.2
N#CCCN(Cc1cccs1)S(=O)(=O)c1ccc2c(c1)CCO2 | -0.62 | 2.2
CCOC(=O)CSc1nnc(-c2ccccc2)c(=O)n1-c1ccccc1 | . | 0.8
Cn1c(CNc2nc(-c3ccccc3)cs2)nnc1SCC(=O)OC1CCCCC1 | 0.42 | -3.7
COc1cccc(CC(=O)NC2CCN(c3ncc(C(F)(F)F)cc3Cl)CC2)c1 | . | 1.1
O=S(=O)(CCSCc1csc2ccccc12)c1ccc(Cl)cc1Cl | . | 1.1
NC(=O)COc1ccc(S(=O)(=O)N2CCc3ccccc32)cc1 | -1.6 | -0.1
Cn1ccnc1SCc1nc2ccccc2c(=O)[nH]1 | 0.41 | 2.5
CCSc1nc2ccccc2c(=O)n1C | 0.071 | 1.3
CC(C)CCN(C(=O)Cn1c(=O)oc2ccccc21)c1c(N)n(Cc2ccccc2)c(=O)[nH]c1=O | . | 0.7
CC1(C)C(c2ccccc2)=[N+]([O-])C(C(=O)O)N1O (configuration not stated) | -0.7 | 3.2
COc1cccc(C(=O)c2c[nH]c(C(=O)NCc3cccs3)c2)c1 | 0.37 | .
CC(Oc1ccccc1)C(=O)Nc1ccccc1C(=O)N1CCOCC1 (configuration not stated) | -1.5 | -0.3
Oc1[nH]c2ccccc2c1C=Nc1ccc2cn[nH]c2c1 | -0.37 | 2.5
Cc1nnsc1C(=O)NC(=O)Nc1ccc(F)c(Cl)c1 | -0.15 | 2.8
CCN[C@@H]1C[C@H](N)[C@@H](O[C@H]2OC(CN)=CC[C@H]2N)[C@H](O)[C@H]1OC1OC[C@](C)(O)[C@H](NC)[C@H]1O (some centres not stated) | 0.58 | .
CN1CCN(c2ncnc3sc(-c4ccccc4)cc23)CC1 | -0.21 | .

Two records drawn at random from those above:
SMILES | LANA-nucl inh | Ab BasE inh
O=C(CSc1nc2ccccc2o1)NCC1CCCO1 (configuration not stated) | 0.45 | 3.3
CCN[C@@H]1C[C@H](N)[C@@H](O[C@H]2OC(CN)=CC[C@H]2N)[C@H](O)[C@H]1OC1OC[C@](C)(O)[C@H](NC)[C@H]1O (some centres not stated) | 0.58 | .

The results go on:
SMILES | LANA-nucl inh | Ab BasE inh
CC1CCCN(C(=O)CSc2nnc(COc3ccc(Cl)cc3)n2C)C1 (configuration not stated) | 0.26 | 1.2
Cc1cc2oc(=O)cc(CN(C)C3CCCCC3)c2cc1C(C)C | . | 0.6
CCOC(=O)C(Sc1nc2c(c(=O)[nH]1)CCCC2)c1ccccc1 (configuration not stated) | -0.77 | -1.1
C=CCNc1nc(Cl)nc(Cl)n1 | -1.2 | 0.5
CCN1C(=O)N(c2ccc(C)c(Cl)c2)S(=O)(=O)c2ccccc21 | 0.68 | 2.1
Cc1ccc(C(=O)COC(=O)/C=C/c2nc3ccccc3o2)c(C)c1 | . | -0.8
O=C(NC1(C(F)(F)F)N=C2SCCN2C1=O)c1ccccc1 (configuration not stated) | 1.7 | -4.6
COC(=O)C1=C(C)NC2=C(C(=O)c3ccccc32)C1c1cc2c(cc1Cl)OCO2 (configuration not stated) | 0.82 | 0.8
CNC(=O)COC(=O)c1cc(C)n(-c2ccc(F)cc2)c1C | . | 0.1
Cc1cc(Nc2ccc(F)c(Cl)c2)nc(NC(=O)C(C)(C)C)n1 | . | -0.3
Cc1noc(C)c1COC(=O)/C(C#N)=C/c1cc(C)n(-c2ccc(Cl)c(C(F)(F)F)c2)c1C | . | 0.1
CCCCNc1ccccc1C(=O)OCc1nc2ccccc2c(=O)n1CC#N | . | 0.1
Cc1nn(CCC(=O)Oc2ccc(Cl)cc2)c(C)c1Cl | 0.4 | 1.2
CCc1ccc(CNC(=O)C2CCC(=O)N2C2CCCCC2)cc1 (configuration not stated) | 0.88 | 0.3
CC(C)NC(=O)C1c2ccccc2C(=O)N(C)C1c1cccs1 (configuration not stated) | -0.35 | 1.5
CCc1ccc(CN(C)CC(=O)N(C)c2c(N)n(Cc3ccccc3)c(=O)[nH]c2=O)cc1 | . | 0.0
CNc1nc(SCc2ccc(C#N)cc2)nc2ccccc12 | . | -3.2
COc1ccc(C=NCC2OCCc3ccccc32)cc1OC (configuration not stated) | . | -5.2
Cc1c(-n2c(SCC(=O)O)nnc2-c2ccccc2Br)c(=O)n(-c2ccccc2)n1C | . | 0.9
NC(=O)Nc1ccc2c(c1)OCO2 | . | 0.2
NCC(O)CNCCc1ccccc1 (configuration not stated) | -1 | -0.9
CCOC(=O)/C(=C\c1cccc2ccccc12)C1=Nn2c(C)nnc2SC1 | . | 0.1
O=C(NCCCN1CCCC1=O)c1nnc(-c2ccc3c(c2)OCO3)o1 | 1.2 | -0.7
CCCSc1nnc(-c2ccc(F)cc2)o1 | -1.7 | -1.1
CN1CCN(Cc2nnnn2CC2CCCO2)CC1 (configuration not stated) | -0.74 | 0.7
CCOc1ccc(NC(=O)NS(=O)(=O)c2ccc(C)cc2)cc1 | . | 3.1
CC(C(=O)Nc1ccc(S(=O)(=O)N2CCCCC2)cc1)N1CCCCCC1 (configuration not stated) | . | 2.8
Cc1ccc(N2CCN(Cc3sccc3C)CC2)cc1 | -0.75 | 0.7
CCCNC(=O)C1=C(C)C(=O)OC12CCN(CC)CC2 | 0.37 | -1.7
Cc1ccc(SCC(=O)N2CCOCC2)cc1 | -0.19 | -0.6
CCOC(=O)C1CCCN(C(=S)NC2CCCC2)C1 (configuration not stated) | 1.7 | -2.0
CS(=O)(=O)CS(=O)(=O)C1=C(N2CCOCC2)C2CCN1CC2 | . | 3.7
O=C(c1ccc(-c2ccc(F)cc2)o1)N1CCC(c2ccccc2)CC1 | 1.1 | 0.8

Bioassay records (PubChem)
